High-throughput results as filed in PubChem BioAssay.
NS1 function inh = inhibitors of influenza NS1 protein function | S. cerevisiae slowed by influenza A NS1, growth recovery by OD600 | Potency, µM (top dose mostly 46.1 µM), for inactives: top-dose activity, positive = more growth | actives 0.4% (n = 270,000); active means well fitted rising curve with a large enough effect; inconclusive means small, poorly fitted or top-dose-only effect; inactive means no such curve, though single readings can be large or run the other way; further: nearly all actives have a fitted effect of over 50% in size
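Recovery from NS1-induced slow growth read by OD600 in budding yeast switched to galactose assay medium (pH 6.0, -URA) at 1:100 dilution. Compound 23 nl per well; the matching strain lacking NS1 serves as control.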
Cruzain inh Det = blocks cruzain activity in presence of Triton detergent; P25779; actives 0.43% (n = 200,000); Potency, µM, inactives show max response, negative = inhibition, most hits filed as inhibitors; purified cruzain, Z-FR-AMC fluorescence, 0.01% Triton;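 further: plate controls were neutral wells for no effect and buffer without enzyme for full effect; nearly all actives have a fitted effect of over 40% in size; top concentration of the series not given in the record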
Target sequence (P25779 123-467 limits assumed): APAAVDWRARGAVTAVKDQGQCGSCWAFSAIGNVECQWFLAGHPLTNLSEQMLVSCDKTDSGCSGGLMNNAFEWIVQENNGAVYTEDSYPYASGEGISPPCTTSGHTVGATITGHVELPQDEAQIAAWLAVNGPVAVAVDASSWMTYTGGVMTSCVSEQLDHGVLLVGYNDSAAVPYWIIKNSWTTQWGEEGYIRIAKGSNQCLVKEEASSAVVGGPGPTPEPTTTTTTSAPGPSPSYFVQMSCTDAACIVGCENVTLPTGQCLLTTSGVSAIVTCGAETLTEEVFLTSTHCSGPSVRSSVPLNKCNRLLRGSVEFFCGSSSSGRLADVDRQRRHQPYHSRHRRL
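Sodium acetate buffer (100 mM, pH 5.5) containing 5 mM DTT and 0.01% Triton X-100 hosted 1.5 nM cruzain and test compound for 15 min at room temperature. Cleavage of 2 uM Z-FR-AMC was then tracked by fluorescence.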
StopGo reporter = FMDV 2A StopGo reporter, luciferase signal | human cells with a luciferase reporter of 2A StopGo recoding; control for the full effect not named in the record | Potency, µM (titrated, usually from 57.9 µM), for inactives: top-dose signal change, negative = less light | actives 1.2% (n = 410,000) | AID 1159524; active = well fitted falling curve with a large enough effect; inconclusive = small, poorly fitted or top-dose-only effect; inactive = no such curve, though single readings can be large or run the other way; tested in HEK293T cells; further: on the % scale 0 is the no-effect control and ±100 the full control effect; nearly all actives have a fitted effect of over 45% in size; luciferase light after 4 h
MARV entry inh = Marburg virus entry inhibition | Marburg virus pseudotyped entry inhibition, cell reporter; control for the full effect not named in the record; about a third of the inactives were read at about 46 µM | Potency, µM (highest dose often 37.8 µM), for the others: top-dose activity change, negative = inhibition, most hits filed as inhibitors | actives 1.8% (n = 300,000) | AID 540276; active = well fitted inhibition curve with a large enough effect; inconclusive = small, poorly fitted or top-dose-only effect, or effect the other way; inactive = flat fitted curve, though single readings scatter; tested in HEK293 cells; about a fifth of its hits are not listed in these tables; further: on the % scale 0 is the no-effect control and ±100 the full control effect; luciferase read-out
SARS PLpro yeast = SARS-CoV PLP inhibition in yeast. Potency, µM (series often up to 32.9 µM), for the others: at the top dose activity, positive = growth rescue. actives 0.19% (n = 330,000). S. cerevisiae expressing SARS-CoV PLpro, growth rescue; control for the full effect not named in the record; active means well fitted rising curve with a large enough effect; inconclusive means small, poorly fitted or top-dose-only effect; inactive means no such curve, though single readings can be large or run the other way; further: 0% is about no effect; nearly all actives have a fitted effect of over 55% in size; growth read by luminescence after 48 h
RE007 growth inh = less growth of the S. pombe RE007 Vpr strain. S. pombe RE007 Vpr strain, BacTiter-Glo ATP luminescence, 24 h; control for the full effect not named in the record. Potency, µM (series often up to 92.2 µM), for the others: at the highest dose activity change, negative = less growth. actives 0.21% (n = 360,000). AID 651644; active = well fitted falling curve with a large enough effect; inconclusive = small, poorly fitted or top-dose-only effect; inactive = no such curve, though single readings can be large or run the other way;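 further: on the % scale 0 is the no-effect control and ±100 the full control effect; nearly all actives have a fitted effect of over 50% in size; the assay follows cell death caused by Vpr and the record does not say whether a fall means rescue or toxicity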
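Fission yeast RE007 carrying one integrated HIV-1 vpr copy, seeded at OD 0.01 in PMG+AL medium with 23 nL pinned compound. Grown 24 h at 30 degrees; viability read by BacTiter-Glo luminescence after 5 min.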
Lassa entry inh = inhibitors of Lassa virus binding or cell entry; Lassa virus pseudotype entry inhibition, cell reporter; control for the full effect not named in the record; Potency, µM (titrated, usually from 37.9 µM), for the others: at the top dose activity change, negative = inhibition, most hits filed as inhibitors; actives 1.2% (n = 300,000); AID 540256; active means well fitted inhibition curve with a large enough effect; inconclusive means small, poorly fitted or top-dose-only effect, or effect the other way; inactive means flat fitted curve, though single readings scatter; tested in HEK293 cells; further: on the % scale 0 is the no-effect control and ±100 the full control effect; nearly all actives have a fitted effect of over 50% in size; luciferase read-out
Cruzain inh noDet = blocks cruzain activity in detergent-free assay. AID 1476. Potency, µM, inactives show max response, negative = inhibition, actives largely listed as inhibitors. purified cruzain, Z-FR-AMC fluorescence, no detergent. P25779. actives 2.3% (n = 200,000);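 further: plate controls were enzyme without inhibitor for no effect and buffer without enzyme for full effect; nearly all actives have a fitted effect of over 40% in size; top concentration of the series not given in the record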
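Detergent-free condition (0.00005% Triton X-100) in acetate buffer pH 5.5 with DTT. 1.5 nM enzyme and compound were pre-mixed 15 min, then 2 uM Z-FR-AMC substrate added; reaction progress from fluorescence change between first and third reads (60 s).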
* = called active by the depositor; ? = inconclusive; · = no result given; [ ] = another dose, or the depositor's remark. Unless noted, the call rests on the fitted dose curve; in most records, active means well fitted curve in the direction sought with a large enough effect; inconclusive means small, poorly fitted or top-dose-only effect, or another doubt; inactive means no such curve, though single readings can be large; an effect the other way counts as inactive or inconclusive. Potency means the concentration at half of the fitted maximal effect.

#	SMILES	NS1 function inh	Cruzain inh Det	StopGo reporter	MARV entry inh	SARS PLpro yeast	RE007 growth inh	Lassa entry inh	Cruzain inh noDet
1	CCOc1ccc(NC(=O)c2cc3sc(Cl)cc3n2CC)cc1	·	-1.3%	0%	4%[46.1 µM]	·	·	·	-1%
2	CN(C)CC#CCOC(c1ccccc1)c1ccccc1	2%	·	-2%	?	-1%	12%	0%	·
3	CN(C(=S)Nc1ccc(Oc2ccccc2)cc1)C1CCCCC1	9%	-4.7%	-18%	?	-31%	8%	-7%	-2%
4	Cc1ccc(SCC(=O)NC2CCS(=O)(=O)C2)cc1 (centres undefined)	?	·	-2%	1%[46.1 µM]	0%	11%	-1%[46.1 µM]	·
5	Cn1c(O)c(C=Nc2ccc(F)cc2)c(=O)[nH]c1=O	-6%	·	9%	·	18%	8%	·	·
6	O=C(CSc1nc2ccccc2o1)NC1CCCC1	·	·	1%	0%[46.1 µM]	-6%	-1%	·	·
7	COc1cc(C(O)CO)ccc1O (centres undefined)	2%	-5.5%	-15%	?	·	3%[18.4 µM]	19%	2%
8	Cn1c(=O)c2c(nc(SCc3cccnc3)n2Cc2ccc(F)cc2)n(C)c1=O	-31%	-4.4%	·	-22%	0%	7%	3%	12%
9	CCn1nc(C)c(Br)c1-c1nc(CS(=O)(=O)c2ccc(F)cc2)no1	1%	·	-20%	-31%[46.1 µM]	1%	5%	3%[46.1 µM]	·
10	CCOc1ccc(N2CC(C(=O)Nc3ccccc3C(=O)N3CCOCC3)CC2=O)cc1 (centres undefined)	1%	·	-17%	-9%	4%	3%	11%	·
11	O=C(NCC1CCCO1)C1CCN(C2CCN(C(=O)C3CCCCC3)CC2)CC1 (centres undefined)	2%	·	-4%	·	1%	13%	19%	·
12	Cc1ccc(NS(=O)(=O)c2ccc(-n3cccn3)cc2)c(C)c1	0%	·	-2%	·	-2%	2%	·	·
13	O=C(Nc1cccc2ccccc12)c1ccc(F)cc1	-22%	·	32%[activator]	·	2%	-15%	·	·
14	COc1cccc(N2CCN(C(=O)c3cc4c(=O)n(Cc5ccco5)ccc4nc3C)CC2)c1	·	-4.7%	-17%	·	·	·	?	?
15	CCOc1ccc(N(CC(=O)NCC2CCCO2)S(=O)(=O)c2ccc(C)cc2)cc1 (centres undefined)	7%	·	7%	?	4%	8%	?	·
16	CCN1CCN(C(=O)/C=C/c2ccc3c(c2)OCO3)CC1	-3%	·	-1%	-1%[46.1 µM]	-1%	3%	12%	·
17	Cc1ccc(C(=O)NNC(=O)CSc2nc(N)cc(N)n2)cc1	13%	1.0%	0%	-1%	-6%	-10%	9%	6%
18	Cc1nc2c(C(=O)NC(C)c3ccccc3)cnn2c(C)c1Cc1ccccc1 (centres undefined)	·	-15%	?	·	·	·	?	11%
19	CCOC(=O)C1CCN(C(=O)c2cc(S(=O)(=O)N3CCCCC3)ccc2C)CC1	-15%	·	5%	7%	0%	15%	?	·
20	CN(C)CCCN(C(=O)c1ccc(N2C(=O)CCC2=O)cc1)c1nc2c(F)cccc2s1	·	·	-25%	-5%[46.1 µM]	-3%	20%	9%	·
21	COc1ccc(CCNC(=O)CCCCn2c(=O)c3ccccc3n(Cc3ccccc3C)c2=O)cc1OC	·	2.5%	?	-29%[46.1 µM]	·	·	?	-7%
22	CCN1CCCC1CNC(=O)CCc1nnc(CCC2CCCCC2)o1 (centres undefined)	0%	·	2%	-1%[46.1 µM]	-1%	3%	13%[46.1 µM]	·
23	COc1ccc(N(CC(=O)NCc2ccco2)S(=O)(=O)c2ccc(C)cc2)cc1OC	9%	·	-5%	?	-1%	16%	-4%	·
24	Cc1cccc(C)c1NC(=O)CSc1nnc([C@H](C)NC(=O)OC(C)(C)C)o1	-5%	5.6%	10%	-1%	2%	-2%	0%	-1%
25	COc1ccc(CCCc2nnc(SCC(=O)Nc3cccc(F)c3C)o2)cc1	·	-4.1%	-11%	14%[46.1 µM]	·	·	10%[46.1 µM]	3%
26	COc1ccc(NC(=O)/C(C#N)=C/c2ccc(C)o2)cc1	·	-6.2%	1%	·	·	·	-10%[46.1 µM]	4%
27	N=c1c2c3c(sc2ncn1Cc1ccco1)CCCCC3	29%	-1.9%	-7%	0%	0%	2%	0%	4%
28	Cc1cccc(NC(=O)Cn2nnc(C(=O)NCc3cccs3)c2N)c1	·	-0.4%	1%	5%[46.1 µM]	·	·	-27%[46.1 µM]	?
29	O=C(Nc1cccc2ncccc12)c1ccc(Br)c([N+](=O)[O-])c1	·	·	-9%	?	10%	-16%	?	·
30	CCCCC1(CO)C(=O)N(c2ccccc2)N(c2ccccc2)C1=O	4%	·	-19%	?	0%	3%	-21%[46.1 µM]	·
31	Cc1cc(C)c(C)c(C(=O)COC(=O)CNC(=O)CN2C(=O)c3ccccc3C2=O)c1C	5%	0.8%	3%	0%	-2%	4%	·	-2%
32	CCN(c1ccccc1)S(=O)(=O)c1cc2c(cc1C)n(C)c(=O)c(=O)n2C	-15%	·	0%	·	?	-4%	·	·
33	CCOC(=O)N1CCN(C(=O)CSc2nnc(Cc3ccccc3)o2)CC1	1%	-4.5%	-13%	·	3%	-12%	·	-8%
34	Cc1ccc(S(=O)(=O)NCC(C)n2cncn2)cc1 (centres undefined)	-8%	·	24%	7%[46.1 µM]	1%	9%	?	·
35	COc1ccc(CCN2CC(C(=O)N(C)C3CCOCC3)CCC2=O)cc1 (centres undefined)	-8%	·	-1%	·	-1%	11%	·	·
36	Cn1c(N)c(S(=O)(=O)c2ccc(Br)cc2)c2nc3ccccc3nc21	10%	-1.1%	47%[activator]	6.3µM*	2%	-25%	8%	0%
37	COc1ccc(C(=O)NC(=S)Nc2ccc(N3CCCC3)cc2)cc1OC	30%	-2.6%	-10%	3%	-11%	-9%	-16%	12%
38	COc1ccc(-c2nc3cc(NC(=O)COc4ccccc4C)ccc3o2)cc1	·	-1.7%	-10%	?	·	·	?	-12%
39	COc1ccc(Oc2ccc3c(C(F)(F)F)cc(C(F)(F)F)nc3n2)cc1	-5%	-11%	4%	-16%	0%	-11%	3%	-1%
40	Cc1cccc(OCCSc2nc3ccc(NC(=O)COc4ccccc4F)cc3s2)c1	·	-1.6%	-17%	-1%[46.1 µM]	·	·	7%[46.1 µM]	-2%
41	O=C(OCC(=O)N1CCc2ccccc21)c1c2c(nc3ccccc13)CCCCC2	-19%	-5.3%	3%	?	-37%	-5%	?	?
42	Cc1cccc(Nc2nc(N)c([N+](=O)[O-])c(NCCO)n2)c1	0%	·	9%	·	1%	2%	·	·
43	O=C(c1cccc(Cl)c1)N1CCC(=O)N(C(COCc2cccc(Cl)c2)Cc2ccccc2)CC1 (centres undefined)	17%	-6.0%	-21%	-17%	6%	-5%	15µM*	8%
44	O=C(Nc1ccc(S(=O)(=O)NCC2CCCO2)cc1)c1ccccc1 (centres undefined)	-1%	·	31%[activator]	?	0%	4%	?	·
45	CCCC(=O)Nc1ccc2nc(SCc3ccc(C)cc3)sc2c1	·	2.6%	4%	?	·	·	?	13%
46	COc1ccc(CNC(=O)c2nn(-c3ccccc3C)nc2CO)cc1	·	-1.5%	-24%	1%[46.1 µM]	·	·	-26%[46.1 µM]	-11%
47	CC(=O)N1Cc2cc([N+](=O)[O-])ccc2Oc2ccccc21	3%	·	-15%	-16%[46.1 µM]	-6%	3%	?	·
48	CC(C)[C@H](NC(=O)c1ccccc1)C(=O)OCC(=O)Nc1ncc(Cl)cc1Cl	·	·	-11%	-19%	7%	-9%	-3%	·
49	COc1ccc(CC(=O)N(C)C2CCCCC2)cc1S(=O)(=O)N1CCOCC1	·	·	-9%	10%[46.1 µM]	-1%	7%	21%	·
50	CCOC(=O)N1CCN(C(=O)CSc2ccc3nnc(-c4ccncc4)n3n2)CC1	·	·	-19%	-12%[46.1 µM]	-4%	16%	7%	·
51	CC(C)(C)NC(=O)c1ccc2c3c(cccc13)CC2	0%	·	25%	12%[46.1 µM]	1%	-4%	14%	·
52	Cc1[nH]c2ccccc2c1/C=N/NC(=O)c1cc(C(C)C)[nH]n1	1%	·	-5%	2%	0%	-8%	·	·
53	Cc1ccc(/C=N/NC(=O)c2ccc(Cn3cc([N+](=O)[O-])cn3)o2)cc1	-1%	-9.4%	29%	14%	-6%	7%	-13%	1%
54	CCN1CCN(C(=O)C(=O)c2cn(CC(=O)N3CCCCCC3)c3ccccc23)CC1	9%	·	-11%	6%	22%	1%	7%	·
55	COc1ccc(C)cc1NC(=O)CN1C(=O)COc2ccc(C)cc21	6%	·	0%	?	?	0%	-12%	·
56	C=CCC1(C)C(=O)N(c2ccccc2)c2ccccc21 (centres undefined)	-6%	-3.8%	-18%	-4%	3%	15%	?	-4%
57	Cc1ccc(NC(=S)c2ccncc2)cc1	-9%	·	-14%	·	0%	-5%	·	·
58	CCC(=O)N(Cc1ccco1)Cc1cc2cc3c(cc2[nH]c1=O)OCO3	1%	·	-6%	-4%	1%	3%	-5%	·
59	CC[n+]1ccc2cc(OC)c(OC)cc2c1Cc1ccc(OC)c(OC)c1	0%	·	-18%	?	3%	-4%	-10%	·
60	O=C(COC(=O)c1cccnc1)NC1CCCc2ccccc21 (centres undefined)	·	·	-3%	10%[46.1 µM]	0%	-10%	2%	·

Following part
#	SMILES	NS1 function inh	Cruzain inh Det	StopGo reporter	MARV entry inh	SARS PLpro yeast	RE007 growth inh	Lassa entry inh	Cruzain inh noDet
61	CCC(CC)c1nnc(NC(=O)CCS(=O)(=O)Cc2ccccc2)s1	-12%	·	-24%	?	10%	4%	?	·
62	CCOC(=O)c1sc2ccc(S(=O)(=O)N3CC(C)CC(C)C3)cc2c1N (centres undefined)	5%	-10%	-12%	26%	-21%	-24%	3%	16%
63	CCOC(=O)N1CCN(C(=O)c2ccc(OC)cc2)CC1	3%	·	-17%	-1%	0%	-13%	1%	·
64	Cn1c(=O)cc(OCCCC(=O)NCc2ccccn2)c2ccccc21	-5%	4.4%	0%	3%	-3%	1%	-8%	8%
65	COc1ccc(-c2cc(C(F)(F)F)nc(NCc3ccc(Cl)cc3)n2)cc1	·	-4.6%	-27%	-1%[46.1 µM]	·	·	-10%[46.1 µM]	?
66	CSc1ccc(CN2CCCCCC2)cc1	0%	·	-15%	0%	-3%	-4%	16%	·
